# Screening results as filed in PubChem BioAssay.
# 2A Renilla: FMDV 2A StopGo reporter, Renilla signal; HEK cells with a luciferase reporter of 2A StopGo recoding; 0.32% of 120,000 active; AID 1745857; Potency, µM (top dose mostly 57.5 µM), for the others: top-dose signal change, negative = less light; active means well fitted falling curve with a large enough effect; inconclusive means small, poorly fitted or top-dose-only effect; inactive means no such curve, though single readings can be large or run the other way; also: nearly all actives have a fitted effect of over 55% in size; overnight with compound
# 2A firefly: FMDV 2A StopGo reporter, firefly signal | HEK cells with a luciferase reporter of 2A StopGo recoding | Potency, µM (titrated, usually from 57.5 µM), inactives show top-dose signal change, negative = less light | 0.23% of 120,000 active | AID 1745856; active = well fitted falling curve with a large enough effect; inconclusive = small, poorly fitted or top-dose-only effect; inactive = no such curve, though single readings can be large or run the other way; also: nearly all actives have a fitted effect of over 60% in size; overnight with compound
# Starred values were filed as active, the others as inactive; u = inconclusive; [ ] = dose if it differs, or a comment. % is scaled to controls: 0 for no effect and ±100 for the full control effect; potency is read from the fitted curve at half-maximal effect. Rows were taken by chance. Share with any hit: about 0.55%.
structure | 2A Renilla | 2A firefly
COC(=O)c1ccc(NC(=O)C(c2ccccc2)N2Cc3ccccc3C2=O)cc1 (stereo not drawn) | -7% | 16%
O=C(COc1ccc2ccc(=O)oc2c1)NCC1(N2CCCCC2)CCCCC1 | -6% | 5%
COc1cc(C(=O)OCCOc2ccccc2F)cc(OC)c1OC | 45%[activator] | 192%[activator]
Cc1ccccc1CC(=O)NCCc1cccnc1 | -6% | 6%
C=CCN(Cc1cccs1)C(=O)C1CCC1 | -3% | -6%
Cn1c(=O)[nH]c(=O)c2c1nc(Sc1ccccc1)n2Cc1ccc(Cl)cc1 | -4% | 1%
O=C(NCCCO)c1nn(-c2ccc(Cl)cc2)nc1CO | -17% | 11%
Cc1cc(C)cc(NC(=O)c2nn(C)c(=O)c3ccccc23)c1 | 0% | 11%
Cc1csc(CNC(=O)c2ccc3cc[nH]c3c2)n1 | 22% | 120%[activator]
CCOc1ccc(NC(=O)N2CCN(S(=O)(=O)c3ccc4c(ccn4C)c3)CC2)cc1 | 53%[activator] | 25%
Cc1ccc(CNC(=O)Nc2cn(CC(C)C)c(=O)c3ccccc23)cc1 | -5% | 1%
CC(C)C(CNC(=O)CCc1ncc(-c2ccc(F)cc2)o1)N(C)C (stereo not drawn) | -9% | 7%

# Profiles, quoted from the list:
# CCOc1ccc(NC(=O)N2CCN(S(=O)(=O)c3ccc4c(ccn4C)c3)CC2)cc1 in the list: 2A Renilla: 53%[activator]; 2A firefly: 25%
# Cn1c(=O)[nH]c(=O)c2c1nc(Sc1ccccc1)n2Cc1ccc(Cl)cc1 in the list: 2A Renilla: -4%; 2A firefly: 1%

# Other structures:
structure | 2A Renilla | 2A firefly
COc1ccc(OCC(=O)NC(c2ccccc2)c2cccs2)cc1 (stereo not drawn) | 10% | 32%[activator]
CCOC(=O)c1c(NC(=O)c2nc(SC)ncc2Cl)sc(C)c1C | -7% | -16%
CC(C)(C)c1ccc(OCc2nn3c(CN4CCCCC4)nnc3s2)cc1 | -9% | u
Cc1nc2nc(NC(=O)c3ccc(C(C)(C)C)cc3)[nH]n2c(=O)c1C | 26% | 15%
Cn1c(SCc2ccc(F)cc2)nc2ccc(C(=O)NCc3cccc(Cl)c3)cc21 | 105%[activator] | -4%
O=S(=O)(Nc1ccc(F)cc1)c1ccc(-c2cnc(C3CC3)o2)cc1 | 107%[activator] | -21%
Cn1c(=O)[nH]c(=O)c2[nH]c(CN3CCN(Cc4ccccc4)CC3)nc21 | -14% | -9%
Cc1oc2ncnc(N3CCOCC3)c2c1C(=O)N1CCN(c2cccc(C(F)(F)F)c2)CC1 | -4% | -21%
CCN(Cc1ccc(Cl)nc1)/C(=C/[N+](=O)[O-])NC | 5% | -6%[11.5 µM]
Cn1c(CN2CCN(c3ccccc3NC(=O)c3ccccc3)CC2)nc2ccccc21 | -8% | -22%
Cc1ccc(CC(=O)NC(C)c2ccncc2)cc1C (stereo not drawn) | 8% | -1%
Cc1ccccc1C(=O)NC(NC(=O)c1ccccc1C)c1ccc(F)cc1 | 16% | 14%

# Three entries from above, ordered by heavy-atom count, smallest number first:
structure | 2A Renilla | 2A firefly
CCN(Cc1ccc(Cl)nc1)/C(=C/[N+](=O)[O-])NC | 5% | -6%[11.5 µM]
CCOC(=O)c1c(NC(=O)c2nc(SC)ncc2Cl)sc(C)c1C | -7% | -16%
O=S(=O)(Nc1ccc(F)cc1)c1ccc(-c2cnc(C3CC3)o2)cc1 | 107%[activator] | -21%

# Remaining list, next part
structure | 2A Renilla | 2A firefly
CC(C)c1ccc(NC(=O)CCn2c(=O)c3cccn3c3ccccc32)cc1 | 6% | u
Cc1cc(C(=O)COC(=O)c2ccco2)c(C)n1Cc1cccs1 | 28% | 0%
COc1cc(C(=O)Nc2ccccc2)cc2c1OCCO2 | -7% | 72%[activator]
Cc1ccc(NC(=O)C2CCCN(S(=O)(=O)c3ccc4c(c3)oc(=O)n4C)C2)cc1Cl (stereo not drawn) | -8% | -4%
COCc1oc2c(cc(NS(=O)(=O)c3ccc(C)cc3)c3ccccc32)c1C(=O)OC | 46%[activator] | -6%
Cc1c(O)ccc2c(CN3CCN(c4cccc(C(F)(F)F)c4)CC3)cc(=O)oc12 | 13µM* | 13µM*
COc1ccc(C(c2c(O)c3ccccc3oc2=O)c2c(C)n(C)n(-c3ccccc3)c2=O)cc1 (stereo not drawn) | 136%[activator] | -4%
CCS(=O)(=O)N1CCc2cc(C(=O)Nc3cc(C(F)(F)F)ccc3Cl)ccc21 | 8% | 13%
O=C(NCCc1ccc2c(c1)OCCO2)c1ccc(NC(=O)c2ccco2)cc1 | 6% | 5%
NC(=O)C1CCN(C(=O)c2ccc3c(c2)CCCN3S(=O)(=O)c2ccc(Cl)cc2)CC1 | u | u
CCOC(=O)c1c(NC(=O)C(C)Sc2cn(CCNC(=O)c3ccccc3OC)c3ccccc23)sc2c1CCC2 (stereo not drawn) | 0% | 8%
CCC(CC)(CC(=O)Nc1ccc2oc(C)nc2c1)C(=O)O | 3% | 7%

# As a working copy, six of the compounds above:
structure | 2A Renilla | 2A firefly
CC(C)c1ccc(NC(=O)CCn2c(=O)c3cccn3c3ccccc32)cc1 | 6% | u
Cc1cc(C(=O)COC(=O)c2ccco2)c(C)n1Cc1cccs1 | 28% | 0%
COc1cc(C(=O)Nc2ccccc2)cc2c1OCCO2 | -7% | 72%[activator]
Cc1ccc(NC(=O)C2CCCN(S(=O)(=O)c3ccc4c(c3)oc(=O)n4C)C2)cc1Cl (stereo not drawn) | -8% | -4%
COCc1oc2c(cc(NS(=O)(=O)c3ccc(C)cc3)c3ccccc32)c1C(=O)OC | 46%[activator] | -6%
Cc1c(O)ccc2c(CN3CCN(c4cccc(C(F)(F)F)c4)CC3)cc(=O)oc12 | 13µM* | 13µM*

# Additional records:
structure | 2A Renilla | 2A firefly
CN(CC(=O)Nc1cccc(F)c1)C(=O)c1cccc(-n2cccc2)c1 | 32%[activator] | 0%
CC(Cc1ccc(Br)cc1)NC(=O)C1CCCCC1 (stereo not drawn) | 17% | 22%
CCOC(=O)Nc1cccc(N2CCn3c(nc4cc(Cl)ccc43)C2)c1 | 1% | 0%
CCOc1ccc(CNS(=O)(=O)c2ccc(-c3ccc(=O)[nH]n3)o2)cc1 | -3% | 8%
CCCCNC(=O)CN(C(C)C)C1CC1 | -8% | -15%
Cc1cccn2c(=O)c3cc(C(=O)NC(C)c4ccccc4)c(=N)n(CCCO)c3nc12 (stereo not drawn) | 41%[activator] | -22%
CSCCC(NC(=O)[C@@H](NC(=O)c1ccc(Cl)cc1Cl)C(C)C)c1nnc2ccccn12 (stereo partly drawn) | 21% | -3%
Oc1ccc(N=Cc2ccccc2OCc2ccccc2)cc1 | 10% | 46%[activator]
COc1ccccc1C(=O)Nc1ccccc1C(C)C | 21% | 0%
COc1cc(C2=NOC(C(=O)N(C)c3ccccc3)C2)cc(OC)c1OC (stereo not drawn) | 11% | 20%
Cn1nnnc1SCCCNCc1cc(Cl)ccc1OCc1ccc(F)cc1 | -1% | -29%
CC(NC(=O)CCCC(=O)O)C1CC2CCC1C2 (stereo not drawn) | -3% | -11%
CC(C)c1cnc2c(c1SCC(=O)c1ccccc1)c(=O)n(C)c(=O)n2C | 22% | -13%
O=C(CSc1nc2ccc(NC(=O)c3ccc(F)cc3)cc2s1)NCc1ccccc1 | -5% | 38%[activator]
CCc1ccc(NC(=O)c2cnc(SC)nc2-c2ccccc2)cc1 | -14% | -11%
O=C(/C=C/c1ccccc1)Nc1ccccc1C(=O)NCc1cccnc1 | 60%[activator] | 100%[activator]
COc1ccc(C(=O)Nc2ccc3oc(-c4cccnc4)nc3c2)cc1OC | u | u
CCOC(=O)c1c(C)n(-c2ccccc2)c2ccc(OC(=O)c3ccccc3NC(=O)C(C)(C)C)cc12 | u | u
COc1cc(NC(=O)CCNC(=O)Cn2ccc3ccccc3c2=O)cc(OC)c1OC | 2% | -10%
CCN(CC)C(=O)c1sc2nc(N3CCOCC3)c3c(c2c1N)CCN(C)C3 | -8% | 3%
O=C(NC1(C(F)(F)F)C(=O)Nc2c1c(=O)[nH]c(=O)n2Cc1ccco1)c1ccccc1F (stereo not drawn) | -4% | 2%
O=C(O)CCC(=O)N1N=C(c2ccco2)CC1c1ccc2nccnc2c1 (stereo not drawn) | -4% | 11%
Cn1c(=O)c2c(nc(SCCCC#N)n2Cc2ccc(Cl)c(Cl)c2)n(C)c1=O | 19% | 0%
CCc1ccc2c(c1)-c1ccccc1S(=O)(=O)N2CC(=O)N1CCC(C(N)=O)CC1 | 56%[activator] | 0%
CC(Oc1ccccc1)c1nc(-c2cccc(Br)c2)no1 (stereo not drawn) | -4% | 105%[activator]
COc1cccc(-n2nc(C(=O)Nc3cccc(C(F)(F)F)c3)c3ccccc3c2=O)c1 | 7% | 11%
CC1CCN(C(=O)CSc2nc(-c3cccs3)nc3ccccc23)CC1 | 13% | 19%
COc1cc(OC)cc(-n2c(=O)[nH]c3cc(C(=O)NCCc4ccc(C)cc4)ccc3c2=O)c1 | -2% | -8%
CC(C)c1ccc(NS(=O)(=O)c2ccc3[nH]cc(C(=O)NCC4CCCO4)c(=O)c3c2)cc1 (stereo not drawn) | 274%[activator] | -6%
COc1ccc(NC(=O)C2CCCN(S(=O)(=O)c3ccc(F)cc3)C2)cc1 (stereo not drawn) | 10% | -12%
O=C(CSc1nnc(-c2ccccc2)n1-n1cccc1)Nc1ccc2c(c1)OCO2 | -1% | 5%
CCc1ccc(-n2c(N3CCN(c4cccc(Cl)c4)CC3)nc3ccccc3c2=O)cc1 | -5% | -7%
O=C(/C=C/c1ccccc1)N1CCN(Cc2ccccc2)CC1 | -3% | 134%[activator]
COc1ccc(C)cc1NC(=O)Nc1nnc(N2CCCCC2)s1 | 2% | -3%
CCCC1N=C2c3ccccc3N=C(SCC(=O)Nc3cc(OC)cc(OC)c3)N2C1=O (stereo not drawn) | 241%[activator] | 24%
COc1ccc(-c2nnc(SCC(=O)N3CCCCC3)o2)cc1 | 186%[activator] | 210%[activator]
COC(=O)c1c(NC(=O)/C(C#N)=C/c2ccc(OC)cc2)sc2c1CCC2 | -3% | 0%
CCOC(=O)C1=C(CN2CCC(C(=O)OCC)CC2)NC(=O)NC1c1ccc(Cl)cc1 (stereo not drawn) | -14% | u
Cc1cccc(N2CCN(c3ccc4cc(S(=O)(=O)N5CCC(C)CC5)ccc4n3)CC2C)c1 (stereo not drawn) | 12% | 21%
c1ccc(CN2CCCNCC2)cc1 | 2% | -12%
CCCn1nc(C(=O)Nc2cc(S(=O)(=O)N(CC)CC)ccc2OC)c2ccccc2c1=O | -1% | 1%
Cc1cc2c(cn1)C(=O)c1ccccc1-2 | 14% | 15%
Cc1cccc(NC(=O)c2ccc(-n3c(C)nnc3C)cc2)c1 | -1% | 15%
CC(=O)N1CCC(C(=O)Nc2ccc(Cl)cc2)CC1 | -4% | 10%
Cc1ccc(C)c(-c2cc(C(=O)O)c3cc(C)ccc3n2)c1 | u | -29%
O=C(NC12CC3CC(CC(C3)C1)C2)c1ccc(Cl)c([N+](=O)[O-])c1 | -2% | 21%
CCCC[n+]1c(NCc2cc(Cl)ccc2[O-])[nH]c2ccccc21 | 15% | 4%
CC(=O)c1c(C)[nH]c(C(=O)C(C)Oc2c(F)c(F)cc(F)c2F)c1C (stereo not drawn) | -3%[1.06 µM] | u
COc1cccc(NC(=O)CN(C)CC(=O)Nc2ccccc2C)c1 | -12% | -9%
Fc1cccc(-c2nc(COc3ccc4ccc(C(F)(F)F)nc4c3)co2)c1 | 13% | 0%
Cc1occc1-c1nnc(SC(C(=O)Nc2cccc(C(F)(F)F)c2)c2ccccc2)o1 (stereo not drawn) | 0% | 83%[activator]
